# ID4 SMM = ID4 (human) binding | 31,000 tested, 1.2% active | P47928 | calls only | small molecule microarray, Flag-ID4 binding, fluorescence F/B;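 active means spot signal over background at p below 0.07 in all four prints; compounds were printed on slides so no solution concentration is given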;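 further: a binder raises fluorescence above local background on the spot; about 2 pmol printed per array spot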
# Target sequence (P47928 whole entry, looked up): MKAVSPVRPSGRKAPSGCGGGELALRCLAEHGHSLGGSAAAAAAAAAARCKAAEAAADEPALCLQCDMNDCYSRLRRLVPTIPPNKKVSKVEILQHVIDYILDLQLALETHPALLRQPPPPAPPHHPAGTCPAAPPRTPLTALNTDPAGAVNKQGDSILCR
# Myc binder = c-Myc (human) binding. 17,000 tested, 1.5% active. P01106. calls only. small molecule microarray, His-c-Myc binding, anti-His fluorescence. AID 624141;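 active means spot fluorescence over background with P-value below 7% in all four replicate spots, showing protein binding; compounds were printed on slides so no solution concentration is given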;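 further: score is binary with 100 for all four spots passing and 0 otherwise; about 2 pmol printed per array spot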
# Target sequence (P01106 whole entry, looked up): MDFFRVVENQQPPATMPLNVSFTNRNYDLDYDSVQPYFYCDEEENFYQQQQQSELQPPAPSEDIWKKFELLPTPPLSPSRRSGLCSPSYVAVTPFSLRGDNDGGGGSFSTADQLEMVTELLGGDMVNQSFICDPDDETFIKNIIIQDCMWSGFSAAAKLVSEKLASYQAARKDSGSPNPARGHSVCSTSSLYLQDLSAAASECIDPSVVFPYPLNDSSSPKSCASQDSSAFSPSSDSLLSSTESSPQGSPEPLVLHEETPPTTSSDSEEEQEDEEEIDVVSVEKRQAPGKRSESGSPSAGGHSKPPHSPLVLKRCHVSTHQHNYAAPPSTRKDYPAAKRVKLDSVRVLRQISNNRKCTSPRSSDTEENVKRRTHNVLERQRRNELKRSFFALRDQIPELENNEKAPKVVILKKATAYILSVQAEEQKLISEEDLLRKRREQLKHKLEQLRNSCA
# STAT3 binder = binders of human STAT3. P40763. 17,000 tested, 0.2% active. AID 624138. Small molecule microarray, His-STAT3 binding, anti-His fluorescence. calls only;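 active means compounds whose four printed spots each show fluorescence over background unusually high for their array block, chance value under 7%; compounds were printed on slides so no solution concentration is given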;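 further: about 2 pmol printed per array spot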
# p53 mut binder = binders of human mutant p53 | small molecule microarray binding, anti-GST fluorescence | calls only | 17,000 tested, 0.4% active | AID 624136;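 active means compounds whose four printed spots each glow above background more than chance allows, each with a p-value under 7%; compounds were printed on slides so no solution concentration is given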;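 further: about 2 pmol printed per array spot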
# Calls only; i = inactive; / = no result given; + = active, no number.
# Results follow in this order: Myc binder | p53 mut binder | STAT3 binder | ID4 SMM
1: C[C@H]1CN([C@@H](C)CO)C(=O)Cc2cc(NC(=O)Nc3ccc4c(c3)OCO4)ccc2O[C@@H]1CN(C)C(=O)NC1CCCCC1
  i | i | i | i
2: Cc1noc(C)c1NC(=O)N(C)C[C@H]1Oc2ccc(NC(=O)Nc3ccc(F)cc3)cc2C(=O)N([C@@H](C)CO)C[C@H]1C
  i | i | i | i
3: C[C@H]1CN([C@@H](C)CO)C(=O)c2cccc(NC(=O)NC3CCCCC3)c2O[C@H]1CN(C)C(=O)Nc1cccc2ccccc12
  i | i | i | i
4: C[C@H]1CN([C@@H](C)CO)C(=O)c2cccc(NC(=O)Nc3ccc4c(c3)OCO4)c2O[C@@H]1CN(C)C(=O)NC1CCCCC1
  i | i | i | i
5: CNC[C@@H]1Oc2ccc(NS(=O)(=O)c3cn(C)cn3)cc2CC(=O)N([C@H](C)CO)C[C@@H]1C
  i | i | i | i
6: CNC[C@@H]1Oc2ccc(N)cc2C(=O)N([C@H](C)CO)C[C@H]1C
  i | i | i | i
7: COc1ccc(S(=O)(=O)Nc2ccc3c(c2)C(=O)N([C@H](C)CO)C[C@H](C)[C@@H](CN(C)S(C)(=O)=O)OCCCC[C@@H](C)O3)cc1
  i | i | i | /
8: C[C@H](CO)N1C[C@H](C)[C@@H](CN(C)C(=O)Nc2ccccc2)Oc2ccc(NS(=O)(=O)c3ccccc3)cc2CC1=O
  i | i | i | i
9: C[C@H](CO)N1C[C@H](C)[C@@H](CN(C)S(=O)(=O)c2cccs2)Oc2ccc(N(C)C)cc2CC1=O
  i | i | i | i
10: CNC[C@@H]1Oc2ccc(NC(=O)Nc3ccc4c(c3)OCO4)cc2C(=O)N([C@H](C)CO)C[C@H]1C
  i | i | i | +
11: COc1ccc(CN(C)C[C@@H]2OCCCC[C@H](C)Oc3ccc(NC(=O)Nc4c(C)noc4C)cc3C(=O)N([C@H](C)CO)C[C@H]2C)cc1
  i | i | i | i
12: O=C(CN1C(=O)c2cccc3cccc(c23)C1=O)NCC(O)c1ccccc1 (configuration not stated)
  i | i | i | i
13: Cc1nc(S(=O)(=O)NC[C@@H]2CCCN(Cc3ccc(OCCO)cc3)C2)cn1C
  i | i | i | /
14: O=C(NCCN1CCOCC1)C1CC(c2ccc(Cl)c(Cl)c2)=NO1 (configuration not stated)
  i | i | i | i
15: CC(C)NC(=O)Nc1ccc2c(c1)C(=O)N([C@@H](C)CO)C[C@H](C)[C@H](CN(C)C)OCCCC[C@@H](C)O2
  i | i | i | i
16: O=C(CSc1nnc(-c2cccnc2)n1-c1ccccc1)N1CCN(c2ccc(F)cc2)CC1
  i | i | i | +
17: C[C@@H]1CN([C@H](C)CO)C(=O)Cc2cc(NS(C)(=O)=O)ccc2O[C@@H]1CN(C)C
  i | i | i | i
18: C[C@H](CO)N1C[C@H](C)[C@@H](CN(C)C(=O)NC2CCCCC2)Oc2ccc(NS(=O)(=O)c3ccc(Cl)cc3)cc2CC1=O
  i | i | i | i
19: COc1cc2c(Cc3ccc(OC)c(OC)c3)nccc2cc1O
  i | i | i | /
20: Cn1nc([N+](=O)[O-])nc1Oc1ccccc1C(=O)N1CCOCC1
  i | i | i | i
21: C[C@@H]1CN([C@@H](C)CO)C(=O)c2cccc(NS(=O)(=O)c3ccc(Cl)cc3)c2O[C@H]1CN(C)C(=O)Nc1cccc2ccccc12
  i | i | i | i
22: C[C@@H]1CN([C@H](C)CO)C(=O)c2cc(NC(=O)Cc3cn(C)c4ccccc34)ccc2O[C@H]1CN(C)S(=O)(=O)c1ccccc1
  i | i | i | /
23: C[C@@H]1CCCCO[C@H](CN(C)C(=O)c2ccccc2)[C@H](C)CN([C@@H](C)CO)C(=O)c2cc(NC(=O)Nc3ccc4c(c3)OCO4)ccc2O1
  i | i | i | i
24: CC(=O)n1cc([C@@H]2C=C(C(=O)N3CCN(Cc4ccc5c(c4)OCO5)CC3)O[C@H](OCCCCO)C2)c2ccccc21
  i | i | i | /
25: O=[N+]([O-])c1cccc(CSc2nnc(-c3ccco3)n2-c2ccccc2)c1
  i | i | i | i
26: COc1cccc(OC)c1OCCNCCO
  i | i | i | i
27: C[C@@H]1CCCCO[C@@H](CN(C)S(=O)(=O)c2ccc(F)cc2)[C@@H](C)CN([C@H](C)CO)C(=O)c2cc(NC(=O)Nc3ccc4c(c3)OCO4)ccc2O1
  i | i | i | /
28: C[C@H]1CN([C@@H](C)CO)C(=O)Cc2cc(NC(=O)Nc3ccc4c(c3)OCO4)ccc2O[C@@H]1CN(C)C(=O)Nc1ccc2c(c1)OCO2
  i | i | i | i
29: COc1ccc(CN(C)C[C@H]2Oc3ccc(NS(=O)(=O)c4ccc(F)cc4)cc3CC(=O)N([C@@H](C)CO)C[C@H]2C)cc1
  i | i | i | /
30: O=C(O)C1=C[C@@H](C2CCCCC2)C[C@@H](OCc2ccc(CO)cc2)O1
  i | i | i | i

# Exported screen by screen: part of the list above
18) C[C@H](CO)N1C[C@H](C)[C@@H](CN(C)C(=O)NC2CCCCC2)Oc2ccc(NS(=O)(=O)c3ccc(Cl)cc3)cc2CC1=O
29) COc1ccc(CN(C)C[C@H]2Oc3ccc(NS(=O)(=O)c4ccc(F)cc4)cc3CC(=O)N([C@@H](C)CO)C[C@H]2C)cc1
1) C[C@H]1CN([C@@H](C)CO)C(=O)Cc2cc(NC(=O)Nc3ccc4c(c3)OCO4)ccc2O[C@@H]1CN(C)C(=O)NC1CCCCC1
23) C[C@@H]1CCCCO[C@H](CN(C)C(=O)c2ccccc2)[C@H](C)CN([C@@H](C)CO)C(=O)c2cc(NC(=O)Nc3ccc4c(c3)OCO4)ccc2O1

Screen / compound no.,18,29,1,23
Myc binder,i,i,i,i
p53 mut binder,i,i,i,i
STAT3 binder,i,i,i,i
ID4 SMM,i,/,i,i

# Carrying on:
# Results follow in this order: Myc binder | p53 mut binder | STAT3 binder | ID4 SMM
31: C[C@H]1CN([C@@H](C)CO)C(=O)c2cc(NC(=O)C3CC3)ccc2O[C@@H]1CN(C)C(=O)Nc1cccc2ccccc12
  i | i | i | i
32: CCO[C@H]1OC(C(=O)NCc2nc3ccccc3[nH]2)=C[C@@H](c2cn(C(C)=O)c3ccccc23)[C@@H]1CCCO
  i | i | i | i
33: C[C@H]1CN([C@@H](C)CO)C(=O)c2cccc(NS(C)(=O)=O)c2O[C@H]1CN(C)C
  i | i | i | i
34: CC[N+](C)(CC)CC(=O)Nc1c(C)cccc1C
  i | i | i | i
35: CN1CCN(C(=O)C2=C[C@H](C(C)(C)C)C[C@H](OCc3ccc(CO)cc3)O2)CC1
  i | i | i | i
36: C[C@@H]1CCCCO[C@H](CN(C)S(=O)(=O)c2ccccc2)[C@@H](C)CN([C@H](C)CO)C(=O)c2cc(NC(=O)Nc3ccccc3)ccc2O1
  i | i | i | i
37: O=C1CC(c2ccccc2)N=C(SCC(=O)Nc2ccc3ccccc3c2)N1 (configuration not stated)
  i | i | i | i
38: CNC[C@@H]1Oc2ccc(NS(=O)(=O)c3ccccc3)cc2C(=O)N([C@H](C)CO)C[C@H]1C
  i | i | i | i
39: CNC(=O)CN(c1ccccc1)S(=O)(=O)c1ccc(F)cc1
  i | i | i | i
40: O=C(COc1ccc(Cl)cc1Cl)Nc1c[nH]c(=O)[nH]c1=O
  i | i | i | i
41: CC(C)Oc1cccc(-n2c(CCc3c[nH]c4ccc(Br)cc34)nc3ccccc3c2=O)c1
  i | i | i | i
42: c1ccc(Cn2c(SCCN3CCOCC3)nc3ccccc32)cc1
  + | i | i | i
43: COc1ccc(CN(C)C[C@H]2Oc3ccc(NS(=O)(=O)c4ccc(Cl)cc4)cc3C(=O)N([C@H](C)CO)C[C@@H]2C)cc1
  i | i | i | i
44: Cc1ccc(S(=O)(=O)N(C)C[C@@H]2Oc3c(NC(=O)NC(C)C)cccc3C(=O)N([C@H](C)CO)C[C@@H]2C)cc1
  i | i | i | /
45: COc1ccc(S(=O)(=O)Nc2cccc3c2O[C@@H](CN(C)Cc2ccc(C(F)(F)F)cc2)[C@@H](C)CN([C@@H](C)CO)C3=O)cc1
  i | i | i | i
46: Cc1nc(CSc2nc3sc(C)c(C)c3c(=O)n2-c2ccccc2)cs1
  i | i | i | i
47: OCC1CC(c2ccccc2)=NO1 (configuration not stated)
  i | i | i | i
48: CC1(C)CC(=O)C2=C(C1)NC(SCC(=O)Nc1ccccc1)=C(C#N)C2c1ccco1 (configuration not stated)
  i | i | i | i
49: C[C@H]1CN([C@@H](C)CO)C(=O)c2cccc(NS(C)(=O)=O)c2O[C@@H]1CN(C)C(=O)NC1CCCCC1
  i | i | i | i
50: C[C@H](CO)N1C[C@H](C)[C@@H](CN(C)Cc2ccncc2)Oc2ccc(N(C)C)cc2CC1=O
  i | i | i | i
51: C[C@@H]1CN([C@@H](C)CO)C(=O)c2cc(NC(=O)Cc3cn(C)c4ccccc34)ccc2O[C@@H]1CN(C)S(=O)(=O)c1cccs1
  i | i | i | /
52: CC(C)NC(=O)Nc1ccc2c(c1)CC(=O)N([C@@H](C)CO)C[C@@H](C)[C@H](CN(C)CC1CCCCC1)O2
  i | i | i | /
53: Cc1noc(C)c1S(=O)(=O)N(C)C[C@@H]1Oc2ccc(NS(=O)(=O)c3ccc(Cl)cc3)cc2C(=O)N([C@@H](C)CO)C[C@@H]1C
  i | i | i | i
54: COC(=O)COc1ccc(NC(=O)c2ccc(NC(C)=O)cc2)cc1
  i | i | i | i
55: CCn1cc(CN(C)C(=S)Nc2sc3c(c2C(=O)OC)CCC(C)C3)c(C)n1 (configuration not stated)
  i | i | i | i
56: C=C1C(=C/C=C2\CCC[C@]3(C)[C@@H]([C@H](C)CCCC(C)(C)O)CC[C@@H]23)C[C@@H](O)C[C@@H]1O
  i | i | i | i
57: Cc1noc(C)c1S(=O)(=O)Nc1ccc2c(c1)CC(=O)N([C@H](C)CO)C[C@H](C)[C@@H](CN(C)C(=O)Nc1ccccc1)O2
  i | i | i | i
58: CN(CC(=O)Nc1cccnc1)S(=O)(=O)c1cc(Cl)ccc1Cl
  i | i | i | i
59: CSc1ccccc1NC(=O)CN(C1CCCCC1)S(=O)(=O)c1ccc(F)cc1
  i | i | i | i
60: CC1CCc2c(sc(NC(=O)Cn3nc(C(F)(F)F)c4c3CCCCC4)c2C#N)C1 (configuration not stated)
  i | i | i | i

# New compounds follow:
# Results follow in this order: Myc binder | p53 mut binder | STAT3 binder | ID4 SMM
61: CN(C)S(=O)(=O)N1CCN(CC(=O)Nc2ccc(Br)cc2)CC1
  i | i | i | i
62: Cc1ccc(N(Cc2ccco2)C(=O)c2cccc(S(=O)(=O)N(C)C)c2)cc1
  i | i | i | i
63: CCC(=O)Nc1cccc(NC(=O)COc2cc(Cl)c(Cl)cc2Cl)c1
  i | i | i | i
64: C[C@H](CO)N1C[C@H](C)[C@@H](CN(C)C(=O)Nc2ccccc2C(F)(F)F)OCc2cn(nn2)CCCC1=O
  i | i | i | i
65: C[C@H]1CN([C@@H](C)CO)C(=O)c2cc(NS(=O)(=O)c3ccc(F)cc3)ccc2O[C@@H]1CN(C)S(=O)(=O)c1ccc(F)cc1
  i | i | i | /
66: C[C@H]1CN([C@@H](C)CO)C(=O)c2cccc(NS(=O)(=O)c3cn(C)cn3)c2O[C@@H]1CN(C)S(=O)(=O)c1cn(C)cn1
  i | i | i | i
67: C[C@H](CO)N1C[C@H](C)[C@@H](CN(C)S(=O)(=O)c2cccs2)Oc2ccc(NC(=O)NC3CCCCC3)cc2C1=O
  i | i | i | i
68: Cn1c(SCc2nc(-c3cccs3)no2)nnc1-c1ccccc1
  i | i | i | i
69: C[C@@H]1CN([C@@H](C)CO)C(=O)c2cc(NC(=O)Nc3ccc4c(c3)OCO4)ccc2O[C@H]1CN(C)CC1CCCCC1
  i | i | i | i
70: C[C@@H]1CN([C@@H](C)CO)C(=O)Cc2cc(NC(=O)Cc3cn(C)c4ccccc34)ccc2O[C@H]1CN(C)S(=O)(=O)c1cccs1
  i | i | i | i
71: CNC[C@H]1OCCCC[C@@H](C)Oc2ccc(NC(=O)Nc3ccccc3)cc2C(=O)N([C@@H](C)CO)C[C@H]1C
  i | i | i | i
72: O=C(CC1C(=O)NCCN1C(=S)Nc1ccccc1)Nc1ccc(F)cc1 (configuration not stated)
  i | i | i | i
73: Cn1c(CN2CCOCC2)nnc1SCC(=O)Nc1ccccc1Br
  i | i | i | i
74: CCC[C@@H]1C[C@@H](C(=O)N[C@@H]([C@H]2O[C@H](SC)[C@H](O)[C@@H](O)[C@@H]2O)[C@@H](C)O)N(C)C1
  i | i | i | i
75: Cc1noc(C)c1NC(=O)N(C)C[C@H]1Oc2ccc(NC(=O)c3ccncc3)cc2CC(=O)N([C@H](C)CO)C[C@H]1C
  i | i | i | i
76: C=C(CCCCCCCC(=O)O)C(=O)O
  i | i | i | /
77: C[C@@H]1CN([C@@H](C)CO)C(=O)c2cccc(NC(=O)C3CCOCC3)c2O[C@H]1CN(C)CC1CC1
  i | i | i | i
78: C[C@@H]1CN([C@@H](C)CO)C(=O)c2cc(NC(=O)Nc3ccc4c(c3)OCO4)ccc2O[C@@H](C)CCCCO[C@@H]1CN(C)Cc1ccc(C(=O)O)cc1
  i | i | i | /
79: O=C(CSc1nc(Nc2ccccc2)nc(N2CCOCC2)n1)N1CCCC1
  i | i | i | i
80: O=C(CCN1C(=O)c2ccccc2C1=O)Nc1ccc(-c2nc3ccccc3[nH]2)cc1
  i | i | i | i
81: Cc1ccc(S(=O)(=O)N2CCCC(C(=O)NCc3ccccn3)C2)cc1 (configuration not stated)
  i | i | i | i
82: [N-]=[N+]=NCc1ccccc1C[C@]1(C(=O)NCc2ccccc2)COC(c2ccc(OCCCO)cc2)=N1
  i | i | i | i

# Bioassay records: PubChem, Broad Institute

# The list is partial; rates above refer to the full screens.
